From PubChem BioAssay
Measles inh: inhibitors of measles virus growth in cells, primary screen, measles RdRp inhibitor project, cell-based, single point, HTS | infected Vero cells, GFP fluorescence, 64 h; stronger effect = lower value | z-score (no concentration beside the values) | hit rate 0.1% among 33,000 | AID 745, 2007;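 active = z-score under -3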;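 note: score is relative to mean and SD of the compound wells of a plate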
* hit, by the source's call. Some of the compounds tested (hit frequency here may not be typical).

SMILES | Measles inh
Cc1ccc(-c2csc(NC(=O)c3ccc(S(=O)(=O)N4CCCc5ccccc54)cc3)n2)o1 | -0.4
O=C(CN1CCN(c2ccccc2F)CC1)c1ccc(O)c(O)c1 | -1.4
COC(=O)c1ccccc1-n1cnnn1 | -0.51
O=C(C[n+]1cc(Br)cc2ccccc21)c1ccc(NC(=O)c2ccccc2)cc1 | -1.2
Cc1cc(C)cc(N2C(=O)C(C)SC23CCCCC3)c1 (centres undefined) | -1.2
N/C(=N\c1nc2ccccc2o1)NC(=O)c1ccc([N+](=O)[O-])c(Cl)c1 | -0.03
O=C(Nc1ccccc1C(=O)O)c1cc(S(=O)(=O)Nc2ccc(Br)cc2)ccc1Cl | -0.63
CCn1c2ccccc2c2cc(NC(=O)c3c4n(c(=O)c5cc(OC)c(OC)cc35)CCc3ccccc3-4)ccc21 | -0.04
CC1CCCCC1NS(=O)(=O)c1cc(C(=O)Nc2cccc(Cl)c2)ccc1F (centres undefined) | 1.3
Cc1ccccc1-n1nc2c(c1NC(=O)c1ccc(C)c([N+](=O)[O-])c1)CSC2 | -0.18
Cc1ccc(CCNC(=O)c2ccc3c(=O)n(-c4ccccc4)c(=O)[nH]c3c2)cc1 | -0.17
CC(=O)Nc1ccc(S(=O)(=O)NCc2ccc(C(=O)O)cc2)cc1 | 0.75
O=c1oc2ccccc2n1Cc1cccc(C(F)(F)F)c1 | -0.64
COc1cccc(NC(=O)CSc2nc3c(c(=O)n2Cc2ccccc2)SC(C)C3)c1 (centres undefined) | 0.47
Cc1cc(C)c(NC(=O)c2cc(S(=O)(=O)N3CCc4ccccc4C3)ccc2F)c(C)c1 | 1.1
Cc1ccc(-c2cc(C(F)F)nc(NCc3ccco3)n2)cc1 | -1
C=CCN1C(=O)c2ccccc2Sc2ccc(C(=O)NCCOC)cc21 | 1.3
Cc1cc(C(=O)NC(C)c2ccccc2)c2ccccc2n1 (centres undefined) | -0.56
Cc1ccccc1C(=O)Oc1ccc2c(=O)c(Oc3ccccc3Br)coc2c1 | 0.37
CCOc1ccc(N2C(=O)CC(NCc3ccc(Cl)cc3)C2=O)cc1 (centres undefined) | -0.09
CN(C)S(=O)(=O)c1ccc(C(=O)N2CC(=O)Nc3ccc(Cl)cc3C2c2ccccc2)cc1 (centres undefined) | 0.12
COc1ccc(NC(=O)c2ccc3c(=O)n(CCc4ccccc4)c(=S)[nH]c3c2)cc1 | -1.1
O=C(CCCn1c(=O)[nH]c2ccc(Br)cc2c1=O)NCCc1ccccc1 | 0.24
CN(c1ccccc1)S(=O)(=O)c1ccc(C(=O)Nc2nc3c(ccc4ccccc43)s2)cc1 | 0.12
Cc1ccnc(NC(=O)c2cc(C)ccc2[N+](=O)[O-])c1 | -0.46

A portion taken from the entries so far, for reference:
SMILES | Measles inh
Cc1ccc(-c2csc(NC(=O)c3ccc(S(=O)(=O)N4CCCc5ccccc54)cc3)n2)o1 | -0.4
O=C(CN1CCN(c2ccccc2F)CC1)c1ccc(O)c(O)c1 | -1.4
COC(=O)c1ccccc1-n1cnnn1 | -0.51
O=C(C[n+]1cc(Br)cc2ccccc21)c1ccc(NC(=O)c2ccccc2)cc1 | -1.2
Cc1cc(C)cc(N2C(=O)C(C)SC23CCCCC3)c1 (centres undefined) | -1.2
N/C(=N\c1nc2ccccc2o1)NC(=O)c1ccc([N+](=O)[O-])c(Cl)c1 | -0.03
O=C(Nc1ccccc1C(=O)O)c1cc(S(=O)(=O)Nc2ccc(Br)cc2)ccc1Cl | -0.63
CCn1c2ccccc2c2cc(NC(=O)c3c4n(c(=O)c5cc(OC)c(OC)cc35)CCc3ccccc3-4)ccc21 | -0.04
CC1CCCCC1NS(=O)(=O)c1cc(C(=O)Nc2cccc(Cl)c2)ccc1F (centres undefined) | 1.3
Cc1ccccc1-n1nc2c(c1NC(=O)c1ccc(C)c([N+](=O)[O-])c1)CSC2 | -0.18
Cc1ccc(CCNC(=O)c2ccc3c(=O)n(-c4ccccc4)c(=O)[nH]c3c2)cc1 | -0.17
CC(=O)Nc1ccc(S(=O)(=O)NCc2ccc(C(=O)O)cc2)cc1 | 0.75
O=c1oc2ccccc2n1Cc1cccc(C(F)(F)F)c1 | -0.64
COc1cccc(NC(=O)CSc2nc3c(c(=O)n2Cc2ccccc2)SC(C)C3)c1 (centres undefined) | 0.47

Continuation:
SMILES | Measles inh
COc1cccc2cc(C(C)=O)c(=O)oc12 | 0.74
Cc1ccc(Nc2c(-c3cccs3)nc3cnccn23)cc1 | -0.78
Cc1c(C(=O)OC2CCCC2C)[nH]c2c1C(=O)CC(c1ccccc1)C2 (centres undefined) | -0.67
Cc1cccc(N2COc3cc4c(cc3C2)OCO4)c1 | -0.27
Nc1c(C(=O)NCCc2ccccc2)nnn1-c1ccc(OC(F)(F)F)cc1 | 4.2
COc1ccc(C(=O)N2CCN(C(=O)c3cc(OC)c(OC)c(OC)c3)CC2)cc1OC | -0.87
CCOc1ccccc1C1C=C(c2ccc(OC)cc2)Nc2nnnn21 (centres undefined) | -0.36
Cc1ccccc1N1C(=O)C2C3CCC(C3)C2C1=O (centres undefined) | -0.24
O=C(Oc1ccc(Cl)cc1)c1cc2ccccc2o1 | 0.08
CC(C)Cn1c(CCNC(=O)Cc2ccccc2)nc2ccccc21 | -0.71
CCc1cc2c(=O)c(-c3nc4ccccc4s3)c(C)oc2cc1OC(C)C(=O)OC (centres undefined) | 0.99
Nc1ccc(Cl)c2c1C(=O)c1ccccc1C2=O | 2.4
O=C(Nc1nc(-c2cc3ccccc3oc2=O)cs1)c1ccc(Br)s1 | -0.42
COc1cc(NC(=O)CN2CCN(S(=O)(=O)c3ccc(F)cc3)CC2)cc(OC)c1 | 0.04
CCCCCN1C2=C(C(=O)CC(C)(C)C2)C(c2ccc(Cl)cc2)C2=C1CC(C)(C)CC2=O | -0.99
Cc1ccc(CCNC(=O)CN2C(=O)COc3ccc(C(C)(C)C)cc32)cc1 | 1.3
CCOC(=O)c1cccc(NC(=O)COc2ccc(Cl)cc2)c1 | -0.85
Cc1cccc(C)c1NC(=O)C(NC(=O)CN1C(=O)c2ccccc2C1=O)c1ccc([N+](=O)[O-])cc1 (centres undefined) | -0.41
COc1ccc(CN2CCN(c3ncnc4sc5c(c34)CCCC5)CC2)cc1F | -0.75
CCc1ccccc1NC(=O)c1cccc(Cl)c1 | 0.7
CC(C)c1ccc(NC(=O)C(c2cc3c(cc2[N+](=O)[O-])OCO3)N2CCc3ccccc32)cc1 (centres undefined) | -0.18
Cc1ccc(NC(=O)C2C3C=CC4(O3)C2C(=O)N(Cc2ccc3c(c2)OCO3)C4C(=O)NC2CCCC(C)C2C)cc1Cl (centres undefined) | 0.29
Cc1c(C2C3=C(CC(C)(C)CC3=O)OC3=C2C(=O)CC(C)(C)C3)c(=O)n(C)n1-c1ccccc1 | 0.02
Cc1cc(=O)n2[nH]c(-c3ccccc3Cl)cc2n1 | -0.93
Cc1c(C(=O)Nc2ccccc2F)sc2ncn(CC(=O)Nc3cccc(C(F)(F)F)c3)c(=O)c12 | 0.73
Additional compounds follow.
SMILES | Measles inh
Cc1ccccc1CSc1nc2[nH]ncc2c(=N)n1-c1ccc(Br)cc1 | -0.98
CCOC(=O)COc1cc2oc(=O)c3c(c2cc1CC)CCCC3 | 0.78
Cc1cc(O)c(C=Nc2ccccc2Cl)c(C)c1Cl | -0.01
COC(=O)c1sccc1NC(=O)C1c2ccccc2Oc2ccccc21 | 0.41
Cc1cccn2c(=O)c3cc(C(=O)NCc4ccco4)c(=N)n(C4CCCC4)c3nc12 | 0.65
O=C(Cc1ccccc1)NCc1ccco1 | -0.02
CCOC(=O)c1cccc(Nc2cc(N3CCCCC3)c3noc4c3c2C(=O)c2ccccc2-4)c1 | 0.59
O=C(NCCN1CCCCCC1)c1cnn2c(C(F)(F)F)cc(-c3ccccc3)nc12 | 0.39
Cc1cccn2c(=O)c3cc(C(=O)Nc4ccc(Br)cc4)sc3nc12 | 1.7
COc1ccc(-c2[nH]c(C3CCCCC3)nc2-c2ccccc2)cc1 | -0.32
CCOC(=O)c1cnc2ccc(Cl)cc2c1Nc1ccccc1OC | 0.99
O=C(NCCc1ccc(Cl)cc1)c1cccc(-n2c(=S)[nH]c3cc(Cl)ccc3c2=O)c1 | 1
O=C(C1CCC(Cn2c(=S)[nH]c3ccccc3c2=O)CC1)N1CCCCC1 (centres undefined) | 0.01
O=C(CSc1ccc(C(F)(F)F)cc1[N+](=O)[O-])Nc1ccccc1Cl | 0.71
CCSc1nnc2c(n1)OC(c1ccc(O)cc1)Nc1ccccc1-2 (centres undefined) | 0.63
CC1=C(C(=O)Nc2ccccc2C)C(c2ccc(Br)cc2)NC(=O)N1 (centres undefined) | -0.89
CC(C)c1c(O)nc(SCC(=O)Nc2nc3ccccc3s2)[nH]c1=O | 0.64
CCOc1ccc2nc(SC3CC(=O)N(c4ccccc4C)C3=O)sc2c1 (centres undefined) | -0.66
Cc1ccc(CSc2oc(-c3ccco3)nc2S(=O)(=O)c2ccc(Br)cc2)cc1 | 0.57
COC(=O)CN(c1nc(C)cc(OC)n1)S(=O)(=O)c1ccccc1 | 0.99
CC(=O)Nc1cc(C(=O)N2CC=C(c3ccccc3)CC2)ccc1Sc1ccc(Cl)cc1 | 0.41
CSc1nc2c(c(=O)[nH]1)C(c1ccc(C)cc1)C1=C(CC(C)(C)CC1=O)N2 (centres undefined) | -0.26
CCOc1cc2c(cc1OCC)C1C(C(=O)Nc3cccc(SC)c3)c3ccccc3C(=O)N1CC2 (centres undefined) | -0.91
CCN(CC)C(=S)Oc1ccc(-c2ccccc2)cc1 | 1.1
Cc1ccc([N+](=O)[O-])cc1N1C(=O)c2cccc(F)c2C1=O | -1.7
(list continues)
SMILES | Measles inh
Cc1oc(C(=O)O)cc1COc1ccc2c(C)c(C)c(=O)oc2c1 | 0.21
COc1cc(C2NC(=O)N(C)C(C)=C2C(=O)OCCc2ccccc2)cc(Br)c1O (centres undefined) | -0.63
COc1ccc(C(=O)Nc2cccc(-c3nc4ncccc4o3)c2C)cc1Cl | 1.4
CCn1cc(SCC(=O)Nc2cc(C)on2)c2ccccc21 | 1.2
CCN1C2=C(C(=O)CCC2)C(c2cc(Br)c(OC)c(OC)c2)C2=C1CCCC2=O | 0.45
Cc1ccc(N2C(=O)c3ccc(N)cc3C2=O)cc1C | 0.01
O=C1C(=O)N(c2nccs2)C(c2ccccc2)/C1=C(\O)c1ccc(Br)cc1 (centres undefined) | -0.2
Cc1ccc(C23CC4CC(CC(C(=O)Nc5ccc([N+](=O)[O-])cc5)(C4)C2)C3)cc1 | -0.19
N/C(=N\c1nc2ccccc2o1)NC(=O)c1sc2ccccc2c1Cl | -0.51
CC1(C(=O)n2nnc3ccccc32)CC1(Cl)Cl (centres undefined) | -0.67
CC1CCC(NC(=O)Cn2c(=O)[nH]c3ccsc3c2=O)CC1 (centres undefined) | 0.86
CC(=O)Nc1cccc(NC(=O)c2ccccc2)c1 | -0.22
Cc1cc(C(=O)NCCCN=C2NS(=O)(=O)c3ccccc32)c2ccccc2n1 | 1.1
O=C1N2c3ccccc3Sc3cccc(c32)C1(O)C(F)(F)F (centres undefined) | -1.2
O=c1oc2ccccc2cc1-c1nc(-c2ccccc2)c2cc(Cl)ccc2n1 | -0.41
CN1C(=O)c2ccccc2C(C(=O)Nc2cccc(C#N)c2)C1c1cn(C)c2ccccc12 (centres undefined) | -0.7
COCCCNC(=O)C1c2ccccc2C(=O)N(C)C1c1ccc(OC)cc1 (centres undefined) | -0.69
COc1ccc(CNC(=O)C(NS(=O)(=O)c2cccs2)C(C)C)cc1 (centres undefined) | -1.8
Cc1ccc2cccc(OCc3ccccc3)c2n1 | 0
O=C(O)C1C2CCC(C2)C1C(=O)Nc1nc(-c2cccs2)cs1 (centres undefined) | 0.05
Cn1c(CSc2nc3ccccc3n2C)nc2ccccc21 | 0.69
CC(=O)Oc1ccc(N2C(=O)c3ccc(C(=O)Oc4ccccc4)cc3C2=O)cc1 | -0.37
COc1ccccc1NC(=O)c1cccnc1NCCO | -0.34
Nc1ccc(-c2nn[nH]n2)cc1F | 1.1
CC1CC(C)CN(C(=O)C2CCN(S(=O)(=O)N3CCCC3)CC2)C1 (centres undefined) | -0.6
Continued:
SMILES | Measles inh
CC1CCN(CC(O)Cn2cnc3c2c(=O)n(C)c(=O)n3C)CC1 (centres undefined) | -1.4
CCCOc1cccc(C(=O)Nc2ccc(NC(=O)c3ccc(Br)cc3)cc2)c1 | 0.02
CC(C)OCCCn1c(=S)[nH]c2cc3c(cc2c1=O)OCO3 | -0.5
CCc1ccc(-n2c(C)nc3cc(C(=O)NCCCOC)ccc32)cc1 | -0.85
CC1(C)CC(N2CCC(=O)NC2=S)CC(C)(C)N1 | 0.27
CCN(C(=O)Cc1c(C(=O)O)[nH]c2ccc(Cl)cc12)c1cccc(C(F)(F)F)c1 | -0.04
COc1cccc(NC2(c3nnnn3-c3ccccc3C)CCCC2)c1 | -0.09
CCCOC(=O)CSc1ncnc2sc(C)c(C)c12 | -0.16
COc1ccc(C2CC(=O)c3c([nH]c(C(=O)OCC4CCCCC4)c3C)C2)cc1 (centres undefined) | 2.1
CCOC(=O)c1ccc(CN(Cc2ccc(F)cc2)S(=O)(=O)c2cccc(Cl)c2)cc1 | -0.25
CC1=C(C(=O)OCCC(C)C)C(c2cc3c(cc2Br)OCO3)NC(=O)N1 (centres undefined) | 1.8
Nc1cc(OC(=O)c2ccc(F)cc2)nn1S(=O)(=O)c1ccc(F)cc1 | -0.83
CCCCNC(=O)c1cnn2c(C)c(Cc3ccccc3)c(C)nc12 | -0.18
Cc1cccc2oc(-c3cc(N=Cc4ccc(Cl)cc4)ccc3O)nc12 | 1.6
COc1cc2nc(SCc3cccc([N+](=O)[O-])c3)n(Cc3ccco3)c(=O)c2cc1OC | 0.96
CC(=O)c1c(OC(=O)c2ccccc2Br)ccc2c(C)cc(=O)oc12 | 0.85
O=C(Nc1ccc(Cl)c(-c2nc3cc(Cl)ccc3o2)c1)c1ccc([N+](=O)[O-])o1 | -0.78
COC(=O)c1ccc(C2C3=C(CC(C)(C)CC3=O)NC3=C2C(=O)CC(C)(C)C3)cc1 | -0.45

A different layout for some results above.
structure	Measles inh
CCCCNC(=O)c1cnn2c(C)c(Cc3ccccc3)c(C)nc12	-0.18
CC1(C)CC(N2CCC(=O)NC2=S)CC(C)(C)N1	0.27
